Screens (PubChem BioAssay)
YB-1 expr inh: YB-1 expression inhibition; U2OS, qRT-PCR YB-1 vs CDIP delta delta Cp, 16 h; active compounds read high; zero = DMSO, each unit about twofold; hit rate 0.37% among 30,000; delta delta Cp (YB-1 minus CDIP) (concentration not given with the values); AID 434959;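 active = delta delta Cp rounded down to an integer at or above 3, about 3 SD of DMSO wells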;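 also: higher means less YB-1 transcript or more CDIP transcript relative to DMSO; stock transfer was 100 nL into about 100 µL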
The depositor's hits bear a star. The list is partial. The share of hits here may be higher or lower than overall.

SMILES	YB-1 expr inh
C[C@H]1CN([C@@H](C)CO)C(=O)CCCn2cc(nn2)CO[C@@H]1CN(C)S(=O)(=O)c1ccccc1C#N	-0.235
C[C@H]1CN([C@@H](C)CO)C(=O)CCCn2cc(nn2)CO[C@@H]1CN(C)C(=O)c1ccc2ccn(C)c2c1	0.231
C[C@H](CO)N1C[C@H](C)[C@H](CN(C)CC2CC2)OCc2cn(nn2)CCCC1=O	0.0295
C[C@H](CO)N1C[C@H](C)[C@@H](CN(C)S(=O)(=O)c2ccc(C#N)cc2)OCc2cn(nn2)CCCC1=O	-0.176
C[C@@H]1CN([C@H](C)CO)C(=O)CCCn2nncc2CO[C@H]1CN(C)S(=O)(=O)c1ccc(F)cc1	0.295
COc1ccc(-c2cnc3c(c2)C(=O)N([C@H](C)CO)C[C@H](C)[C@H](CN(C)S(=O)(=O)c2ccc(C)cc2)O3)cc1	-0.0816
C[C@@H]1CN([C@@H](C)CO)C(=O)CCCn2nncc2CO[C@H]1CN(C)Cc1cccc(C(F)(F)F)c1	0.439
COc1ccc(/C=N/NC(=O)CCCCCC(=O)Nc2ccccc2O)cc1	-0.457
COC(=O)CCCCCCC(=O)N/N=C/c1sccc1C	0.363
C[C@H](CO)N1C[C@H](C)[C@H](CN(C)S(=O)(=O)c2ccc(F)cc2)OCc2cnnn2CCCC1=O	-0.0981
C[C@H](CO)N1C[C@H](C)[C@H](CN(C)Cc2ccc(C(=O)O)cc2)OCc2cnnn2CCCC1=O	-0.0612
COc1cccc(S(=O)(=O)N(C)C[C@@H]2Oc3ncc(-c4ccccc4)cc3C(=O)N([C@H](C)CO)C[C@@H]2C)c1	0.205
C=CCOC(=O)[C@@H]1[C@H]2C(=O)O[C@H](c3ccccc3)[C@H](c3ccccc3)N2[C@H](c2ccc(OCCOC(=O)[C@@H]3C[C@@H]4C(=O)N[C@@H](CCCCNC(C)=O)C(=O)N4[C@@H]3c3ccc(O)cc3)cc2)[C@@]12C(=O)Nc1ccc(I)cc12	0.434
CNC[C@@H]1OCc2cn(nn2)CCCC(=O)N([C@@H](C)CO)C[C@H]1C	-0.447
C=CCOC(=O)[C@H]1[C@@H]2C(=O)O[C@@H](c3ccccc3)[C@@H](c3ccccc3)N2[C@@H](c2ccc(OCCOC(=O)[C@@H]3C[C@@H]4C(=O)NCC(=O)N4[C@@H]3c3cccc(OCCO)c3)cc2)[C@]12C(=O)Nc1ccc(I)cc12	0.26
C[C@H](CO)N1C[C@H](C)[C@H](CN(C)S(=O)(=O)c2ccccc2)Oc2ncc(-c3cccc(C(F)(F)F)c3)cc2C1=O	0.00298
C[C@H](CO)N1C[C@H](C)[C@H](CN(C)S(=O)(=O)c2cccc(F)c2)Oc2ncc(-c3ccccc3)cc2C1=O	-0.412
COC(=O)N(C)C[C@H]1OCc2cn(nn2)CCCC(=O)N([C@H](C)CO)C[C@H]1C	-0.197
C[C@@H]1CN([C@@H](C)CO)C(=O)CCCn2cc(nn2)CO[C@H]1CN(C)Cc1ccc(C(=O)O)cc1	0.212
O=C(N/N=C/c1ccccc1Cl)c1ccccc1O	0.137
C[C@H](CO)N1C[C@H](C)[C@@H](CN(C)S(=O)(=O)c2ccc3ccccc3c2)OCc2cnnn2CCCC1=O	0.253
C[C@H](CO)N1C[C@H](C)[C@H](CN(C)S(=O)(=O)c2ccc(C#N)cc2)Oc2ncc(-c3ccc(F)cc3)cc2C1=O	0.179
C[C@@H]1CN([C@@H](C)CO)C(=O)CCCn2nncc2CO[C@@H]1CN(C)S(=O)(=O)c1cccc(C#N)c1	-0.417
C[C@H]1CN([C@@H](C)CO)C(=O)CCCn2cc(nn2)CO[C@@H]1CN(C)S(=O)(=O)c1ccc(Cl)cc1	-0.173
C[C@@H]1CN([C@H](C)CO)C(=O)CCCn2cc(nn2)CO[C@@H]1CN(C)C(=O)Nc1ccnc(N2CCOCC2)c1	-0.18

Reformatted with each value named: 3 of the compounds above.
> C=CCOC(=O)[C@@H]1[C@H]2C(=O)O[C@H](c3ccccc3)[C@H](c3ccccc3)N2[C@H](c2ccc(OCCOC(=O)[C@@H]3C[C@@H]4C(=O)N[C@@H](CCCCNC(C)=O)C(=O)N4[C@@H]3c3ccc(O)cc3)cc2)[C@@]12C(=O)Nc1ccc(I)cc12
- YB-1 expr inh: 0.434
> C[C@@H]1CN([C@H](C)CO)C(=O)CCCn2nncc2CO[C@H]1CN(C)S(=O)(=O)c1ccc(F)cc1
- YB-1 expr inh: 0.295
> C[C@@H]1CN([C@@H](C)CO)C(=O)CCCn2nncc2CO[C@H]1CN(C)Cc1cccc(C(F)(F)F)c1
- YB-1 expr inh: 0.439

Remaining list, next part:
SMILES	YB-1 expr inh
O=C(N/N=C/[C@@H](O)[C@@H](O)[C@H](O)[C@H](O)CO)c1ccccc1O	0.046
C[C@@H]1CN([C@H](C)CO)C(=O)CCCn2cc(nn2)CO[C@@H]1CN(C)S(=O)(=O)c1ccc2ccccc2c1	0.338
CCOC(=O)N(C)C[C@H]1OCc2cnnn2CCCC(=O)N([C@H](C)CO)C[C@H]1C	-0.0852
C[C@H]1CN([C@@H](C)CO)C(=O)CCCn2nncc2CO[C@H]1CN(C)Cc1ccc(Cl)c(Cl)c1	-0.305
C[C@H]1CN([C@@H](C)CO)C(=O)CCCn2cc(nn2)CO[C@@H]1CN(C)Cc1cccc(O)c1	-0.162
COc1ccc(CN(C)C[C@@H]2OCc3cn(nn3)CCCC(=O)N([C@@H](C)CO)C[C@@H]2C)cc1	0.0704
COC(=O)[C@@]1(Cc2ccccc2)COC(c2ccc(OCCCO)cc2)=N1	-0.214
COc1ccccc1S(=O)(=O)N(C)C[C@@H]1OCc2cnnn2CCCC(=O)N([C@@H](C)CO)C[C@@H]1C	-0.257
C[C@H](CO)N1C[C@H](C)[C@H](CN(C)S(C)(=O)=O)Oc2ncc(-c3ccccc3)cc2C1=O	-0.0747
Cc1ccc(CN(C)C[C@@H]2OCc3cn(nn3)CCCC(=O)N([C@@H](C)CO)C[C@H]2C)cc1	0.0814
COc1ccc(NC(=O)N(C)C[C@@H]2Oc3ncc(-c4cc5ccccc5o4)cc3C(=O)N([C@H](C)CO)C[C@@H]2C)cc1	0.158
C[C@H]1CN([C@@H](C)CO)C(=O)CCCn2cc(nn2)CO[C@@H]1CN(C)S(=O)(=O)c1cccc(C#N)c1	-0.45
C[C@H](CO)N1C[C@H](C)[C@H](CN(C)Cc2ccc(Oc3ccccc3)cc2)OCc2cn(nn2)CCCC1=O	0.134
Cc1ccc(S(=O)(=O)N(C)C[C@@H]2OCc3cn(nn3)CCCC(=O)N([C@@H](C)CO)C[C@H]2C)cc1	0.0823
C[C@@H]1CN([C@@H](C)CO)C(=O)CCCn2cc(nn2)CO[C@@H]1CN(C)S(=O)(=O)c1cccc(F)c1	0.186
CCN(CC)c1ccc(/C=N/NC(=O)CCCCCCC(=O)Nc2ccccc2O)c(O)c1	-0.368
C[C@@H]1CN([C@H](C)CO)C(=O)CCCn2cc(nn2)CO[C@H]1CN(C)C(=O)NC1CCCC1	0.166
C[C@H](CO)N1C[C@H](C)[C@H](CN(C)C(=O)Nc2cccc3ccccc23)Oc2ncc(-c3ccc(F)cc3)cc2C1=O	0.34
COCCOC(=O)N1C(=O)[C@@]2(c3ccccc31)[C@H](C(=O)N1CCc3cc(OC)c(OC)cc3C1)[C@H]1C(=O)O[C@H](c3ccccc3)[C@H](c3ccccc3)N1[C@@H]2c1ccccc1OCCO	0.656
COc1ccc(NC(=O)N(C)C[C@H]2OCc3cn(nn3)CCCC(=O)N([C@@H](C)CO)C[C@H]2C)cc1	-0.182
C[C@H]1CN([C@@H](C)CO)C(=O)CCCn2cc(nn2)CO[C@H]1CN(C)C(=O)Oc1ccccc1	0.202
C[C@@H]1CN([C@@H](C)CO)C(=O)CCCn2nncc2CO[C@@H]1CN(C)Cc1ccccc1C(=O)O	-0.387
Cc1ccccc1S(=O)(=O)N(C)C[C@H]1OCc2cnnn2CCCC(=O)N([C@H](C)CO)C[C@@H]1C	-0.248
COc1ccc([Si](C)(C)[C@@H]2[C@@H](CCn3cc(CCO)nn3)O[C@]3(C(=O)N(C)c4c(Br)cc(C)cc43)[C@H]2C)cc1	-0.404
COc1ccc(-c2cnc3c(c2)C(=O)N([C@H](C)CO)C[C@H](C)[C@H](CN(C)C(=O)Nc2cccc4ccccc24)O3)cc1	-0.267

Filtered by structure: the compounds so far containing an aryl methoxy group
SMILES	YB-1 expr inh
COc1ccc(-c2cnc3c(c2)C(=O)N([C@H](C)CO)C[C@H](C)[C@H](CN(C)S(=O)(=O)c2ccc(C)cc2)O3)cc1	-0.0816
COc1ccc(/C=N/NC(=O)CCCCCC(=O)Nc2ccccc2O)cc1	-0.457
COc1cccc(S(=O)(=O)N(C)C[C@@H]2Oc3ncc(-c4ccccc4)cc3C(=O)N([C@H](C)CO)C[C@@H]2C)c1	0.205
COc1ccc(CN(C)C[C@@H]2OCc3cn(nn3)CCCC(=O)N([C@@H](C)CO)C[C@@H]2C)cc1	0.0704
COc1ccccc1S(=O)(=O)N(C)C[C@@H]1OCc2cnnn2CCCC(=O)N([C@@H](C)CO)C[C@@H]1C	-0.257
COc1ccc(NC(=O)N(C)C[C@@H]2Oc3ncc(-c4cc5ccccc5o4)cc3C(=O)N([C@H](C)CO)C[C@@H]2C)cc1	0.158
COCCOC(=O)N1C(=O)[C@@]2(c3ccccc31)[C@H](C(=O)N1CCc3cc(OC)c(OC)cc3C1)[C@H]1C(=O)O[C@H](c3ccccc3)[C@H](c3ccccc3)N1[C@@H]2c1ccccc1OCCO	0.656
COc1ccc(NC(=O)N(C)C[C@H]2OCc3cn(nn3)CCCC(=O)N([C@@H](C)CO)C[C@H]2C)cc1	-0.182
COc1ccc([Si](C)(C)[C@@H]2[C@@H](CCn3cc(CCO)nn3)O[C@]3(C(=O)N(C)c4c(Br)cc(C)cc43)[C@H]2C)cc1	-0.404
COc1ccc(-c2cnc3c(c2)C(=O)N([C@H](C)CO)C[C@H](C)[C@H](CN(C)C(=O)Nc2cccc4ccccc24)O3)cc1	-0.267
